# TRPV1 potentiator – HTS Assay for Compounds that Act as Potentiators of the Vanilloid Receptor 1; 320,000 compounds, 0.02% hits; potentiation, % at 8.33 µM; AID 540277, 2011; TRPV1-expressing cells, Fluo-8 calcium influx, capsaicin EC20 potentiation; host cell line not named in the record; control for the full effect not named in the record; Transient receptor potential cation channel subfamily V member 1 (Homo sapiens), Q8NER1; active means potentiation above 80%; inconclusive means 30% to 80%; inactive means below 30%; note: 0% is about no effect
#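 TRPV1-expressing cells were cultured overnight at 35.5C and loaded with Fluo-8 calcium dye for 40 to 90 min at room temperature. After a 10 s baseline, compound was added and calcium influx was read kinetically for 3 min (ex 480/em 520 nm).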
# Six1-Eya2 inh – qHTS Assay for Inhibitors of the Six1/Eya2 Interaction; Homeobox protein SIX1 (Homo sapiens) + Protein phosphatase EYA2 (Homo sapiens), …; AID 651725, 2012; 360,000 compounds, 0.56% hits; activity change, % (no concentration beside the values); AlphaScreen GST-Six1/His-Eya2 binding, biochemical; active compounds read low; control for the full effect not named in the record; in the data active = activity change below about -65%; inconclusive = about -30% to -65%; inactive = above about -30%; note: % is set by controls: 0 for no effect and ±100 for the full control effect
#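 AlphaScreen with GST-Six1 and His-Eya2 (5X mix: 250 nM and 500 nM), glutathione donor and nickel acceptor beads; buffer 50 mM Tris pH 8.0, 300 mM NaCl, 1 mM TCEP; 1 h at 37 C in the dark.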
# D2 potentiator – Beta-Arrestin HTS for Positive Allosteric Modulators of the Human D2 Dopamine Receptor: Potentiators | D(2) dopamine receptor (Homo sapiens), P14416 | DiscoveRx D2 beta-arrestin cells, luminescence, 90 min; 100% = 57 uM dopamine signal | potentiation, % (concentration not given with the values) | 360,000 compounds, 0.23% hits; active = potentiation of 50% or more; inconclusive = 30% to 50%; inactive = 30% or less;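 note: tested on top of an EC20 dose of dopamine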
# Target sequence (P14416 whole entry, looked up): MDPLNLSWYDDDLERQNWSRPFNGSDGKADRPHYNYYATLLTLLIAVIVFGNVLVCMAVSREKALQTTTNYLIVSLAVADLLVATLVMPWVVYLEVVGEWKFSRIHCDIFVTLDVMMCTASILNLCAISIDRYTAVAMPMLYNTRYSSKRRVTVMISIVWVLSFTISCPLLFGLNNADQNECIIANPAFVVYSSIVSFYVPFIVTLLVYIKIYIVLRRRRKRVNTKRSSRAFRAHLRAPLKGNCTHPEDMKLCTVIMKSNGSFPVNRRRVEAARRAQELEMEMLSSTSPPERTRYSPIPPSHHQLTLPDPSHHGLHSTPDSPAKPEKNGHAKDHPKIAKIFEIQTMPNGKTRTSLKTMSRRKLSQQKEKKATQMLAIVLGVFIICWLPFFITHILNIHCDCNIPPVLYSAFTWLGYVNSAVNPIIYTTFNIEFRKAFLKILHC
#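 PathHunter beta-arrestin assay in DiscoveRx D2 cells. Compounds were added with an EC20 of dopamine (50 nM final) for 90 min at 37 deg C. Luminescence was read 1 h after detection reagent, with 57 uM dopamine as the EC100 control.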
# TRPML1 ag – qHTS for Agonists of the Human Mucolipin Transient Receptor Potential 1 (TRPML1). AID 624414, 2012. 410,000 compounds, 0.12% hits. Mucolipin-1 (Homo sapiens), Q9GZU1. TRPML1-expressing cells, Ca2+ dye fluorescence, FDSS; host cell line not named in the record; reference of the full effect not given here. activation, % (no concentration beside the values); in the data active = activation above about 50%; inconclusive = about 30% to 50%; inactive = below about 30%; note: 0% is about no effect; the text of the record puts the active cut at 80%
# Target sequence (Q9GZU1 whole entry, looked up): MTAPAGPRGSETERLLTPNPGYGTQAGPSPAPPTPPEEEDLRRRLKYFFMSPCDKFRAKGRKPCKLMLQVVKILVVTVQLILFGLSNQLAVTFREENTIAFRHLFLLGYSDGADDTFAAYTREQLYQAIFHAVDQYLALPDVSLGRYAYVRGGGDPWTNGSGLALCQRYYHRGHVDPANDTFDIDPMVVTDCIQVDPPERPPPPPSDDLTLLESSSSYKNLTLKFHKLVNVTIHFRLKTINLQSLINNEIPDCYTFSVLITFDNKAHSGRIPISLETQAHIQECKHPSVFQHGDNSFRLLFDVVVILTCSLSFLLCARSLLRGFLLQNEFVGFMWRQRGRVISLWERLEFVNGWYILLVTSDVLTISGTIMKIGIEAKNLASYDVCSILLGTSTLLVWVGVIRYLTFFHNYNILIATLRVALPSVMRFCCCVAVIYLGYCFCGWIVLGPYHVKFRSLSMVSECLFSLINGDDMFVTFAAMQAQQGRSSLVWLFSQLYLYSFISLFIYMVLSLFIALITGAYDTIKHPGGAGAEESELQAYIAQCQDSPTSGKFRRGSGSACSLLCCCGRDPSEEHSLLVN
#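 Agonist activity was taken from a 110 s kinetic Ca2+ dye read on the FDSS after pinning compounds onto TRPML1-DL cells. The cells were seeded at 1,500/well with Tet inducer, incubated about 16 h, then dye-loaded at room temperature.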
# CtBP-E1A blk – qHTS Assay for Inhibitors of the CtBP/E1A Interaction | activity change, % (concentration not given with the values) | CtBP / adenovirus E1A interaction (AlphaScreen) | AlphaScreen GST-E1A/His-CtBP binding, 1536-well; active compounds read low; control for the full effect not named in the record | 340,000 compounds, 0.49% hits; in the data active means activity change below about -65%; inconclusive means about -30% to -65%; inactive means above about -30%; note: % is set by controls: 0 for no effect and ±100 for the full control effect
#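 Steps: dispense buffer (Tris pH 8.0, NaCl 300 mM, TCEP 1 mM, BSA, Tween 20); add 5X protein mix (GST-E1A, His-CtBP, 125 nM each); pin 23 nL compound; 2 h at 37 °C, dark; add 5X beads (50 ug/mL); 1 h; read.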
# TRPML1 inh – qHTS for Inhibitors of the Human Mucolipin Transient Receptor Potential 1 (TRPML1) | TRPML1-inducible cells, Ca2+ dye fluorescence, FDSS; active compounds read low; inhibition of EC80 agonist-evoked calcium signal | activity change, negative = inhibition, % (test concentration not listed) | 390,000 compounds, 0.02% hits | Mucolipin-1 (Homo sapiens), Q9GZU1 | AID 624415, 2012; in the data active means activity change below about -50%; inconclusive means about -30% to -50%; inactive means above about -30%;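 note: stimulus is agonist 54-4 at its EC80 concentration; % is set by controls: 0 for no effect and ±100 for the full control effect; compound concentration not given in the record; the text of the record puts the active cut at -80%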
#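 TRPML1-DL cells, Tet-induced overnight (~16 h, 37 °C) at 1,500 cells/well, were loaded with Ca8 no-wash dye plus quencher for 45-90 min at room temperature. Compounds were pinned during FDSS kinetic reading; agonist 54-4 at EC80 (4 uM final) then added.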
# Starred values were filed as active, the others as inactive; ? = inconclusive; · = not tested or not shown; & = joins results of further samples. Compounds were not picked by outcome (roughly 0.95% active in at least one column).
SMILES,TRPV1 potentiator,Six1-Eya2 inh,D2 potentiator,TRPML1 ag,CtBP-E1A blk,TRPML1 inh
CC(=O)c1ccc(NC(=O)c2ccc([N+](=O)[O-])o2)cc1,-28,0,-1,-0.3,·,7
O=C(O)CCC1(c2ccccc2)NC(=O)NC1=O (centres undefined),-8,-8,-4,-0.4,4,3
COC(=O)c1ccc2[nH]c(C(C)(C)O)c(C)c2c1,-8,-1,-1,-0.9,3,5
COc1ccccc1N1CCN(C(=O)c2ccc3ncsc3c2)CC1,·,3,-18,·,-12,·
O=C(OCc1ccc(Br)cc1)c1ccncc1,-10,17,-8,0.7,·,37
COc1c(C=NNC(N)=O)c(OC)c(OC)c2c1CCO2,·,2,-6,-0.8,8,-3
Oc1ccc(CN2CCN(Cc3ccccc3)CC2)c2cccnc12,-24,-93*,-49,1.0,-98*,-6
CCOC(=O)C1CCN(C(=O)COc2cc(C)c(Br)cc2C)CC1,13,-1,-30,0.3,-1,4
CC(C)C12NC(=O)NC(=O)N1CCS2 (centres undefined),·,9,-17,0.3,-11,-17
Cc1cc(C)c(NC(=O)CN2CCOCCOCCOCCOCC2)c(C)c1,·,2,4,-1.1,2,7
Cc1cc(N2CCN(C(=O)OC(C)(C)C)CC2)n2ncnc2n1,-7,1,-8,0.0,1,2
O=C(N/N=C/c1ccc(O)cc1O)NC12CC3CC(CC(C3)C1)C2,6,2,-3,1.6,-3,-7
COc1ccc(NS(=O)(=O)c2cccc(NC(=O)CNC(C)=O)c2)cc1,1,0,-4,-0.9,8,13
COc1ccc2nc(NC3=NCCC3)sc2c1,-18,-1,-7,-0.4,1,4
Cc1cnc(C(=O)OCC(=O)NC2CCCC(C)C2C)cn1 (centres undefined),9,9,-26,-0.3,5,26
CN(C)NC(=S)Nc1cccc(Cl)c1,·,4,-2,0.2,1,-3
COc1ccc(CCC(C)NCC(C)c2ccccc2)cc1 (centres undefined),-32,5,-14,1.3,0,-1
Cc1cc(NCc2ccccn2)nc2ccccc12,8,0,-20,-0.1,10,3
C[C@H](O)CNC(=O)c1[nH]cnc1C(=O)N[C@@H](C)c1ccccc1,·,7,-1,-0.5,-6,4
CC(=O)Nc1cccc(NC(=O)CCn2c(=O)sc3ccccc32)c1,·,3,-12,-0.2,7,-6
C[C@H]1CN([C@@H](C)CO)C(=O)CCCn2nncc2CO[C@@H]1CN(C)Cc1ccccc1C(F)(F)F,·,5,-4,1.5,-12,3
Cc1c(NS(=O)(=O)c2ccc3c(c2)n(C)c(=O)n3C)c(=O)n(-c2ccccc2)n1C,6,6,-9,-0.2,7,0
Cc1cc(OC(=O)c2ccc(Cl)cc2Cl)c([N+](=O)[O-])c(=O)[nH]1,-7,2,-6,-0.2,1,10
O=C(O)c1ccccc1C(=O)NCc1ccc2c(c1)OCO2,-2,12,-8,-0.7,·,-5

# Quoted from the entries so far, 2 compounds:
SMILES,TRPV1 potentiator,Six1-Eya2 inh,D2 potentiator,TRPML1 ag,CtBP-E1A blk,TRPML1 inh
Cc1cc(OC(=O)c2ccc(Cl)cc2Cl)c([N+](=O)[O-])c(=O)[nH]1,-7,2,-6,-0.2,1,10
O=C(O)c1ccccc1C(=O)NCc1ccc2c(c1)OCO2,-2,12,-8,-0.7,·,-5

# Following part.
SMILES,TRPV1 potentiator,Six1-Eya2 inh,D2 potentiator,TRPML1 ag,CtBP-E1A blk,TRPML1 inh
COc1cc(NC(=O)CSc2ccccc2)c(C(=O)O)cc1OC,11,16,-4,0.8,0,-16
COc1cc(OC)cc(-c2cc3nc(C4CCN(C(=O)OC(C)(C)C)CC4)cc(=O)n3[nH]2)c1,28,?,-20,-0.5,?,-9
COc1cccc(CCC(=O)Nc2cccc(S(=O)(=O)N3CCCC3)c2)c1OC,4,-6,-12,0.7,-19,-10
CCOC(CCNC(=O)c1cc(-c2cccs2)nc2ccccc12)OCC,8,2,24,3.1,7,2
COc1ccc(C(=O)NCCNC(=O)c2cc(OCC(F)(F)F)ccc2OCC(F)(F)F)cc1,8,1,-5,1.0,7,-17
COc1ccc(/C=C(\C#N)C(=O)c2cccn2C)cc1,4,-2,-5,4.2,·,42
Cn1ncc([N+](=O)[O-])c1C(=O)Nc1ccccc1Cl,-7,-1,-5,-0.2,-5,49
COc1ccc(-c2csc(N3N=C(C)C(C)C3=O)n2)cc1 (centres undefined),7,-1,-6,-0.4,-17,15
CCCCCCC(NC(=O)c1ccc(C)cc1)C(=O)O (centres undefined),·,-11,·,0.1,-27,-6
Cc1ccc(NC(=O)C2(C)CCN2C(=O)CC(c2ccccc2)c2ccccc2)cc1 (centres undefined),·,0,-9,0.0,-1,·
CC(=O)OC1(C)C=Cc2ccccc2C1=NS(=O)(=O)c1ccccc1 (centres undefined),·,-2,-9,-0.2,-6,0
CCOc1ccc(C(=O)N2CCCC2)cc1,23,-1,-5,1.9,0,-5
O=C(O)c1ccc(NS(=O)(=O)c2cc(C(=O)O)ccc2Br)cc1,3,3,70*,1.7,-1,2
O=C(COC(=O)c1ccc(Cl)nc1)NC1CCCc2ccccc21 (centres undefined),·,0,-14,0.0,9,-6
O=c1[nH]cnc2scc(-c3ccc(-c4ccccc4)cc3)c12,?,7,-2,1.1,0,4
CN(C)Cc1c(OC(=O)c2ccc(N)cc2)ccc2ccccc12,·,-20,-13,0.2,-9,1
O=C(CN1C(=O)NC2(CCCCCCC2)C1=O)NCc1ccccc1Cl,-22,30,-8,0.7,·,-11
Cn1cc(C(=O)N2CCCCC2)c(=O)c2cc(S(=O)(=O)N3CCCC3)ccc21,6,2,-7,-0.4,3,-11
COc1ccc(C(=O)c2sc(Nc3ccccc3)nc2C)cc1,-26,4,-7,-0.4,3,4
COc1ccc(OC)c(NC(=O)NCCc2c[nH]c3ccccc23)c1,-14,-16,-15,0.9,-14,24
O=C(CCC1COc2ccccc2O1)NCc1ccccc1 (centres undefined),-27,11,-8,-0.7,11,-11
FC(F)(F)c1cc(-c2ccccc2)nc2ncnn12,1,0,0,-0.6,-3,-2
Cc1cc(F)ccc1NC(=O)c1cnccn1,-17,4,-3,0.5,-19,4
CCN(CC)CCNC(=O)c1ccc(NC(=O)c2ccc(COc3ccccc3)cc2)cc1,2,3,-4,0.2,0,-6

# 13 structures already listed, sorted by count of non-hydrogen atoms, ascending.
SMILES,TRPV1 potentiator,Six1-Eya2 inh,D2 potentiator,TRPML1 ag,CtBP-E1A blk,TRPML1 inh
CCOc1ccc(C(=O)N2CCCC2)cc1,23,-1,-5,1.9,0,-5
Cc1cc(F)ccc1NC(=O)c1cnccn1,-17,4,-3,0.5,-19,4
FC(F)(F)c1cc(-c2ccccc2)nc2ncnn12,1,0,0,-0.6,-3,-2
CCCCCCC(NC(=O)c1ccc(C)cc1)C(=O)O (centres undefined),·,-11,·,0.1,-27,-6
COc1ccc(-c2csc(N3N=C(C)C(C)C3=O)n2)cc1 (centres undefined),7,-1,-6,-0.4,-17,15
O=c1[nH]cnc2scc(-c3ccc(-c4ccccc4)cc3)c12,?,7,-2,1.1,0,4
O=C(O)c1ccc(NS(=O)(=O)c2cc(C(=O)O)ccc2Br)cc1,3,3,70*,1.7,-1,2
O=C(COC(=O)c1ccc(Cl)nc1)NC1CCCc2ccccc21 (centres undefined),·,0,-14,0.0,9,-6
CC(=O)OC1(C)C=Cc2ccccc2C1=NS(=O)(=O)c1ccccc1 (centres undefined),·,-2,-9,-0.2,-6,0
O=C(CN1C(=O)NC2(CCCCCCC2)C1=O)NCc1ccccc1Cl,-22,30,-8,0.7,·,-11
Cn1cc(C(=O)N2CCCCC2)c(=O)c2cc(S(=O)(=O)N3CCCC3)ccc21,6,2,-7,-0.4,3,-11
Cc1ccc(NC(=O)C2(C)CCN2C(=O)CC(c2ccccc2)c2ccccc2)cc1 (centres undefined),·,0,-9,0.0,-1,·
CCN(CC)CCNC(=O)c1ccc(NC(=O)c2ccc(COc3ccccc3)cc2)cc1,2,3,-4,0.2,0,-6

# Additional records.
SMILES,TRPV1 potentiator,Six1-Eya2 inh,D2 potentiator,TRPML1 ag,CtBP-E1A blk,TRPML1 inh
COc1ccc(N2CCN(Cc3nc4sc(C)c(C)c4c(=O)[nH]3)CC2)cc1,?,-5,-6,0.0,5,12
COc1ccc(/C=N/Nc2cc(C)nc(N3CCOCC3)n2)c(OC)c1,5,0,-10,0.3,3,-8
Cc1ccc(-n2nc3c(=O)n(CC(=O)NCc4ccccc4Cl)nc(C)c3c2C)cc1,12,1,-9,-0.9,7,-2
O=C(Nc1ccc2ccccc2n1)Nc1ccccc1F,7,1,0,1.5,5,-18
CN1CCN(C(=O)c2ccccc2NC(=O)c2ccccc2Br)CC1,20,4,6,0.3,13,-6
CCOC(=O)Cn1cnc2c(nnn2-c2ccc(C)cc2)c1=O,7,1,-17,2.2,4,20
Cc1ccccc1NC(=S)NC(=O)COc1ccccc1C,3,13,8,1.1,19,-15
Cc1ccc2nc(-c3sc4nc(C)ccc4c3N)[nH]c2c1,-9,-5,10,-1.1,-2,-7
CCn1nc(C(=O)OCC(=O)Nc2ncc(Cl)c(C)c2Cl)c2ccccc2c1=O,5,-16,3,0.0,0,-11
Cc1cc(Cl)c(OCCCn2ccnc2)c(Br)c1,-1,-13,-11,1.0,0,-14
CCC(Sc1ccc2nnc(-c3cccnc3)n2n1)C(=O)O (centres undefined),-2,0,-3,-0.4&0.1,-8,4
CN1CCC(=NNC(=O)C(=O)NC2CCCCC2)CC1,0,1,-3,-0.5,10,5
Nc1ccccc1O,-4,8,12,0.0,?,6
CC1(C(=O)NS(=O)(=O)c2cccs2)CCN1C(=O)C1(c2ccc(Cl)cc2)CC1 (centres undefined),·,0,2,0.0,1,·
N/C(=N\OC(=O)CCC1CCCC1)c1cccc([N+](=O)[O-])c1,-22,0,7,2.1,-3,1
COc1ccc(OC)c(NC(=O)CSc2nnc(-c3cccnc3)s2)c1,6,-2,-2,-0.2,-3,26
O=C(CSc1nc2ccccc2o1)N/N=C/c1ccccc1C(=O)O,?,-68*,-5,·,-93*,·
